Screens: PubChem, Fisher Drug Discovery Resource Center
NPYLR7 agonist: mosquito NPYLR7 agonism; HEK293T NPYLR7/Galpha15, GCaMP6s calcium fluorescence; activation, % at 10 µM; 270,000 compounds, 0.15% hits; in the data active = activation above about 40%;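 note: 0% = vehicle and 100% = reference agonist at the receptor; some compounds past the cut are filed as inactive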
NPYLR7 agonist max-min: recorded beside NPYLR7 agonist, whose call it bears; activation, %; measured here: Max-Min RFU normalised activation; some inactives read as strong as hits;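 span of the calcium signal over five minutes; 0% = vehicle and 100% = native peptide agonist; compound fluorescence can raise it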
An asterisk follows results filed as active; & = joins results of further samples. A portion of the library, so the mix of outcomes need not match the whole.

SMILES	NPYLR7 agonist	NPYLR7 agonist max-min
COc1ccc(OC)c(S(=O)(=O)N[C@H]2CO[C@H]3[C@@H]2OC[C@@H]3Nc2nccc(-c3ccco3)n2)c1	-9	-14
O=C(CN1C(=O)C2C3C=CC(C3)C2C1=O)NCC1(N2CCCCC2)CCCCC1 (stereo not drawn)	5	9
COc1ccccc1CSc1nnc(-c2ccccc2F)n1-c1ccccc1C	16	22
Cc1ccc(CNC(=O)NC(C)c2ccc3c(c2)OCCO3)cc1 (stereo not drawn)	4	3
CCn1cc(Cn2ccnc2-c2ccc(C(=O)O)cc2)cn1	-1	-3
CC(=O)Nc1ccc(NC(=O)C2Cc3ccccc3C(=O)O2)cc1 (stereo not drawn)	-5	-5
Cc1ccc(NC(N)=Nc2nc3c(c(=O)[nH]2)CCC3)c(C)c1	3	1
CCOC(=O)C1CCCN(C(=O)c2csc(CSc3nnc(-c4ccccc4Cl)n3-c3cccc(Cl)c3)n2)C1 (stereo not drawn)	-13	-6
Cc1ccc2[nH]cc(-c3cnc(N)c(C)c3)c2c1	10	15
O=C(CSc1nnc(C2CC2)n1Cc1ccco1)Nc1ccc(F)cc1	13	1
CS(=O)(=O)Nc1ccc(-c2ccnc3[nH]ccc23)cn1	-2	12
CC(=O)NNC(=O)CCc1nc2sc3c(c2c(=O)[nH]1)CCCC3	6	7
CCOc1ccc(-n2c(CNC(=O)c3ccco3)nnc2SCC(=O)N2CCCc3ccccc32)cc1	-4	7
COCCNC(=O)CCCN1C(=O)COc2ccc(C(=O)COc3ccccc3F)cc21	7	6
CC1(NC(=O)Cc2coc3cc4c(cc23)CCC4)CCS(=O)(=O)C1 (stereo not drawn)	-1	-2
CCOc1cccc2cc(C(=O)NCc3ccccc3)c(=N)oc12	1	-4
CCOC(=O)c1cnc(-c2ccc(C(F)(F)F)cc2)nc1NCCc1cccs1	30	26
CCOC(=O)C(C)Oc1ccc2c(=O)c(Oc3ccc(C(=O)OC)cc3)coc2c1 (stereo not drawn)	0	-6
Cc1ccc(C)c(-c2csc3nc(CN(CC(O)COCC(C)C)C4CCCCC4)[nH]c(=O)c23)c1 (stereo not drawn)	13	17
Cc1cn2c(C)nc([N+](=O)[O-])c2n1-c1ccccc1	10	4
CC(=O)Nc1cc(C(=O)CSc2nc3nc(C)cc(C)n3n2)ccc1O	-8	-8
Cc1cccc(Cn2c(SCc3ccccc3)nc3c2c(=O)n(C)c(=O)n3C)c1	-7	-7
CCC(C)N(Cc1ccc(OS(=O)(=O)c2cccc(C(F)(F)F)c2)cc1)C(=O)c1ccc(Br)cc1 (stereo not drawn)	27	28
N#Cc1ccc(OCCN2CCS(=O)(=O)C3CCCCC32)cc1 (stereo not drawn)	0	0
COCCCN1C(=O)N(Cc2ccc(OC)cc2)C(=O)C12CCN(CC(C)(C)C)CC2	16	8

(cont.)
SMILES	NPYLR7 agonist	NPYLR7 agonist max-min
O=S1(=O)CCN2C=C(Cc3ccc(F)cc3)SC2=N1	0	-2
C=CCCC(O)CN(Cc1ccccc1F)CC1CCCO1 (stereo not drawn)	25	31
CC(C)NC(=O)C(C)Oc1ccc(C(C)(C)C)cc1 (stereo not drawn)	16	7
O=C(Nc1ccccc1-c1cn2c(CN3CCNCC3)csc2n1)c1cnc2ccccc2n1	-6	-10
CCCCCc1ccc(C(=O)N(Cc2nc(C(=O)NCC(C)C)cs2)CC(C)C)cc1	17	28
Cc1oc(-c2cccc(F)c2)nc1CC(=O)N1CCOC(Cc2ccccc2)C1 (stereo not drawn)	22	34
CCOC(=O)C1=CN(O)C(=CN=O)C=C1	-8	-15
CN(Cc1ccc(Br)cc1)C(=O)CSc1nc2c(cnn2-c2ccccc2)c(=O)[nH]1	15	11
CCOC(=O)C1=C(C)Oc2ncn3nc(C)nc3c2C1c1ccccc1 (stereo not drawn)	-4	-7
COc1ccc(-c2cc(C(=O)NC(C)C(C)C)n3nc(C(C)(C)C)cc3n2)cc1 (stereo not drawn)	9	6
CCC/C=C/CN1CCN(c2ncccc2C(=O)N2CCCCC2)CC1	3	10
O=C(NCc1cccs1)c1ccc(-c2cc(-c3ccc(Cl)cc3Cl)[nH]n2)cc1	27	14
c1ccc2c(c1)CC(CNCc1cccc3c1OCCO3)O2 (stereo not drawn)	-3	-5
CN(CCn1ccc2ccccc21)C(=O)Cc1nn[nH]n1	9	0
CCOC(=O)CCCNC(=O)N1CCN(c2ncccc2C(=O)NCc2ccc(OC)cc2)CC1	5	3
COc1ccc(S(=O)(=O)N2CCN(C(=O)c3cc(Cl)c(O)c(OC)c3)CC2)cc1	-1	-4
CCOC(=O)c1cc(-c2ccc3ccccc3c2)n(-c2ccc(C(=O)NC3CC3)cc2)n1	3	4
Cc1ccc(C)c(CNC(=O)c2cc(Cn3c(C)nc4ccccc43)[nH]n2)c1	14	-3
O=C(Nc1nc(-c2cc(Cl)sc2Cl)cs1)c1ccc(Br)s1	5	3
OC(COCCC12CC3CC(CC(C3)C1)C2)CN1CCCC1 (stereo not drawn)	0	1
CC(=O)N=c1c(C#N)cc2c(=O)n3cccc(C)c3nc2n1CCCOC(C)C	3	0
Cc1cccc(CN(C(=O)c2ccc(F)cc2)C2CCC(NC(=O)C3CCN(C(=O)c4ccccc4Cl)CC3)CC2)c1 (stereo not drawn)	12	27
O=S(=O)(NCc1ccccc1)Nc1cccc(Cn2cncn2)c1	1	-1
O=C(Nc1cccc(S(=O)(=O)N2CCCCCC2)c1)C1CCC1	-26	-28
Cc1nc(N2CCC(C)CC2)ncc1-c1cc(=O)[nH]c(N2CCN(c3ccc(Cl)cc3)CC2)n1	1	50

(list continues)
SMILES	NPYLR7 agonist	NPYLR7 agonist max-min
C=C(Cl)Cn1cnc2c1c(=O)n(C)c(=O)n2C	0	10
CCNC(=O)N1CC[C@@]2(C1)[C@@H](O)CN(c1ccccc1)S2(=O)=O	4	8
Cc1cc(NC(=O)Cc2cccs2)n(-c2nc(-c3cccs3)cs2)n1	-7	-14
NC(=O)c1ccc(CC2CCN(C(=O)c3cc(F)cc(F)c3)CC2)cc1	3	11
COc1coc(C(=O)NCc2cccnc2)cc1=O	11	2
O=C(c1ccc[nH]c1=O)N1CCN(S(=O)(=O)c2ccc(Br)cc2)CC1	5	3
CC(C)N1CCNC(=O)C1CC(=O)NCCc1cnc2ccccn12 (stereo not drawn)	16	3
O=C(CSc1nc(Cl)cc(N2CCN(c3ccccc3F)CC2)n1)N1CCN(C(c2ccccc2)c2ccccc2)CC1	-3	11
Clc1cncc(N2CCN(c3ncnc4ccsc34)CC2)n1	2	1
O=C(N=Nc1c(O)[nH]c2ccccc12)c1cc(-c2ccc(OCc3ccccc3)cc2)n[nH]1	2	8
O=C(CN1C(=O)CCC1=O)OCc1cc(-c2ccc3c(c2)OCCO3)on1	-2	-2
Cc1cc(=O)n2c(-c3ccc(NC(=O)Nc4cccc(F)c4)cc3)csc2n1	-2	-3
CCN(CC)C(=O)Oc1ccc2c(ccn2Cc2cccc(F)c2)c1NS(=O)(=O)c1ccccc1C	-1	1
CN(C)c1ccc(CCNC(=O)NCC(C)(C)N2CCOCC2)cc1	5	4
CCN(C(=O)c1cc2c(C)cc(F)cc2[nH]1)C1CC(=O)NC1=O (stereo not drawn)	-2	-3
CCOCC(O)CN1CCN(C(=O)C(C)c2cc(C)oc2C)CC1 (stereo not drawn)	5	5
Cc1ccccc1C1CC(=O)c2c(C)nc(N3CCOCC3)nc2C1 (stereo not drawn)	22	15
Cc1ccccc1-n1nc(C)c(CNC(=O)C2(c3ccccc3)CCCCC2)c1C	-11	-14
COc1ccc(C2c3cc(OC)c(OC)cc3CCN2C(=O)c2cccc3ccccc23)cc1 (stereo not drawn)	9	10
CCSCC(C)NCCC(=O)N1CCC(C)CC1 (stereo not drawn)	2	-9
CC(C)N1C(=O)CC(NS(=O)(=O)c2c(Cl)cccc2Cl)C1=O (stereo not drawn)	3	2
Fc1ccccc1N=c1oc2ccc(Br)cc2cc1-c1nc2ccccc2[nH]1	-2	-8
S=c1[nH]nc(Cn2cncn2)n1CC1CCCO1 (stereo not drawn)	-8	-13
CC(C)NC(=O)C1CCCC(NCc2ccccc2-n2cccn2)C1 (stereo not drawn)	2	-6
COCC(O)CN(Cc1cccc(OC)c1)CC1CC(c2ccc(Cl)cc2)=NO1 (stereo not drawn)	-2	3

(listing goes on)
SMILES	NPYLR7 agonist	NPYLR7 agonist max-min
CN(C)CCCN(C)C(=O)C1CC(=O)N(c2ccccc2)C1 (stereo not drawn)	9	9
O=C(O)c1ccc(CSc2nc(Cl)cc(N3CCOCC3)n2)cc1	-7	-11
O=C1NC2=C(C(=O)N(CCO)C2)C(c2ccc(O)cc2)N1 (stereo not drawn)	0	4
CCOc1ccc(CN(C)C(=O)NC2CCCCC2C)cc1 (stereo not drawn)	2	-1
Cc1onc(-c2c(Cl)cccc2Cl)c1COC(=O)CN1CCCc2c1[nH]c1ccccc21	-7	-13
CC(C)c1ccc(NC(=O)C(C2CCCC2)N2CCN(C(=O)OCc3ccccc3)CC2)cc1 (stereo not drawn)	-4	14
Cc1cc(F)ccc1NC(=O)CNC(=O)[C@H](N)CC(C)C	17	12
CN(C)CCNc1ccc(C(=O)N2CCC(CN3CCCC3=O)CC2)cn1	2	1
CC(=O)c1ccccc1NC(=O)CN1CCN(S(=O)(=O)c2ccn(C)c2)CC1	-1	-3
CN(C)CCC(c1ccc(Br)cc1)c1ccccn1 (stereo not drawn)	-3&-2&-6&6	-15&-6&-11&-3
COc1ccc(NC(=Nc2nc(C)cc(C)n2)NC(=O)c2ccc(F)cc2)cc1	-10	-9
c1ccc(Cc2n[nH]c(COc3ccc(-n4cnnn4)cc3)n2)cc1	0	-2
Clc1nc(NCCN2CCOCC2)nc(Nc2ccc(I)cc2)n1	16	10
CCCNC(=O)CN1C(=O)NC2NC(=O)NC21 (stereo not drawn)	-3	-6
Cc1cc(C(=O)CSc2nnnn2C2CC2)c(C)n1CC1CCCO1 (stereo not drawn)	3	5
Cc1c(=O)n(OCc2ccc(C(C)(C)C)cc2)c2ccccc2[n+]1[O-]	24	13
COc1ccc(CCN2C3CCC2CC(NC(=O)c2cc(Cl)ccc2F)C3)cc1OC (stereo not drawn)	2	4
CCCCNC(=O)c1cc(-c2cccc(OC)c2)nc2cc(-c3ccccc3)nn12	10	7
CC(C)(C)NC(=S)NCc1ccc2c(c1)OCO2	1	-2
Cc1c(C(=O)NCCCN2CCCCC2C)cc(-c2ccc(Cl)cc2)n1-c1cccc(F)c1 (stereo not drawn)	-6	-15
COCCCN(Cc1c(-c2cccc(C)c2)noc1N1CCCC1)C(=O)C1CC1	3	10
O=C(c1ccc(Cl)cc1)N(Cc1nccn1Cc1ccccc1Cl)CC1CCCO1 (stereo not drawn)	5	12
c1cncc(COC2CCCN(Cc3ccc4nsnc4c3)C2)c1 (stereo not drawn)	4	-1
COc1ccc(Cl)cc1C(=O)Nn1cnc2c(cnn2-c2ccc(F)cc2)c1=O	4	0
COc1ccc(Cn2[nH]nnc2=S)cc1	1	7

Other records:
SMILES	NPYLR7 agonist	NPYLR7 agonist max-min
COC(=O)Cn1ncc(N2CC3(C)CC2CC(C)(C)C3)c(Cl)c1=O (stereo not drawn)	-16	-19
O=C(c1ccc(-c2cc(-c3cccc(C(F)(F)F)c3)n[nH]2)cc1)N1CC=C(c2ccccc2)CC1	25	19
Cc1cccc(Cn2cccc2CN(Cc2ccc(F)cc2)C(C)C(C)C)c1 (stereo not drawn)	0	2
O=C(c1coc(CN(Cc2cccc(F)c2)Cc2cccc(C(F)(F)F)c2)n1)N1CCOCC1	14	23
CCN1CCN(c2cc3c(cc2F)c(=O)c(C(=O)O)cn3C2CC2)CC1	-1&-8	-2&-11
Fc1ccc(-c2nc3ccc(Cl)cn3c2NCc2ccccc2)cc1	-2	-4
Cc1ccsc1CN1CCOc2ccc(C(O)Cc3ccccc3)cc2C1 (stereo not drawn)	5	2
COc1ccc(CC(=O)N2CCOC(c3ccccc3)C2)c(OC)c1OC (stereo not drawn)	10	23
CC(C)(C)NCc1cc(Br)ccc1OCc1cccs1	3	1
COc1ccc(OC)c(S(=O)(=O)n2c([N+](=O)[O-])cnc2C)c1	6	4
Nc1nnc(-c2ccc(O)cc2)s1	-1	6
Cc1cc(=O)oc2cc(CN3CCC(N4CCSCC4)CC3)ccc12	1	1
Cc1cc(OCC2c3ccsc3CCN2C(=O)CN(C(=O)NC(C)(C)C)C2CC2)ccc1Cl (stereo not drawn)	-4	-2
COc1cccc(CN(CC2CC(c3ccccc3Cl)=NO2)C(=O)NC(C)(C)C)c1 (stereo not drawn)	-3	6
